Bioassay records (PubChem BioAssay)
Mtb growth = Mycobacterium tuberculosis H37Rv growth inhibition, cell based, confirmatory dose response (AID 1949); most inactive calls were filed without a number and no value below 0 was filed; inhibition, % at 10 µg/mL; hits with a dose series show IC50 in µg/mL; 100,000 compounds, 1.6% hits;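 active = confirmed in a dose series; inconclusive = about 50% or more but not retested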;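 note: bacteria grown 7 days with compound before Alamar blue readout; 0% = untreated bacteria and 100% = reference antibiotic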
Numbers without * were called inactive.

Start of the listing, in advance:
For Cc1ccc(SCC(=O)Nc2ccc(Cl)cc2C(F)(F)F)cc1 the results were Mtb growth 2%.
Screening Cc1cc(C(=O)CSc2ncn[nH]2)c(C)n1-c1cccc(C(F)(F)F)c1 returned Mtb growth 6%.
CN(c1ccccc1C(=O)Nc1ccccc1C(=O)NC1CCCCC1)S(C)(=O)=O was read as Mtb growth inactive.
For Cc1c(Cc2ccccc2)c(=O)oc2cc(OC(=O)C3CC3)ccc12 the results were Mtb growth inactive.
CCNC(=O)CN(Cc1c(Cl)cccc1Cl)S(=O)(=O)c1ccc(Cl)cc1 was read as Mtb growth inactive.

The whole of this part, from the first entry:
For Cc1ccc(SCC(=O)Nc2ccc(Cl)cc2C(F)(F)F)cc1 the results were Mtb growth 2%.
Screening Cc1cc(C(=O)CSc2ncn[nH]2)c(C)n1-c1cccc(C(F)(F)F)c1 returned Mtb growth 6%.
CN(c1ccccc1C(=O)Nc1ccccc1C(=O)NC1CCCCC1)S(C)(=O)=O was read as Mtb growth inactive.
For Cc1c(Cc2ccccc2)c(=O)oc2cc(OC(=O)C3CC3)ccc12 the results were Mtb growth inactive.
CCNC(=O)CN(Cc1c(Cl)cccc1Cl)S(=O)(=O)c1ccc(Cl)cc1 was read as Mtb growth inactive.
Screening N#Cc1ccccc1NC(=O)CC1c2ccccc2Oc2ccccc21 returned Mtb growth inactive.
CC(C)(C)c1ccc(OCCn2c(=N)n(CCO)c3ccccc32)cc1 was read as Mtb growth 0%.
`CC1CCN(Cc2c(O)ccc3c4c(c(=O)oc23)CCC4)CC1` gave Mtb growth inactive.
O=C1CC(c2ccc(F)cc2)SC(N2CCc3ccccc32)=N1 (centres undefined) was read as Mtb growth inactive.
Cc1ccc(C)c(NC(=O)CSc2nnc(-c3ccncc3)n2-c2ccc(F)cc2)c1 was read as Mtb growth inactive.
For COc1ccc(NC(=O)c2cc(S(=O)(=O)N3CCOCC3)ccc2Cl)cc1 the results were Mtb growth inactive.
Screening O=C(Nc1ccc2nc(-c3cccs3)[nH]c2c1)c1ccco1 returned Mtb growth inactive.

Next part; it opens with the 7 that closed the last part.
Screening N#Cc1ccccc1NC(=O)CC1c2ccccc2Oc2ccccc21 returned Mtb growth inactive.
CC(C)(C)c1ccc(OCCn2c(=N)n(CCO)c3ccccc32)cc1 was read as Mtb growth 0%.
`CC1CCN(Cc2c(O)ccc3c4c(c(=O)oc23)CCC4)CC1` gave Mtb growth inactive.
O=C1CC(c2ccc(F)cc2)SC(N2CCc3ccccc32)=N1 (centres undefined) was read as Mtb growth inactive.
Cc1ccc(C)c(NC(=O)CSc2nnc(-c3ccncc3)n2-c2ccc(F)cc2)c1 was read as Mtb growth inactive.
For COc1ccc(NC(=O)c2cc(S(=O)(=O)N3CCOCC3)ccc2Cl)cc1 the results were Mtb growth inactive.
Screening O=C(Nc1ccc2nc(-c3cccs3)[nH]c2c1)c1ccco1 returned Mtb growth inactive.
`Cc1ccc(N2CC(C(=O)Nc3ccccc3C(=O)NCCc3ccccc3)CC2=O)cc1` (centres undefined) gave Mtb growth inactive.
For Cc1ccc(C(C)NC(=O)c2ccc3c(c2)OCO3)cc1C (centres undefined) the results were Mtb growth 3%.
Screening CCOc1ccccc1N(CC(=O)Nc1cccc(SC)c1)S(C)(=O)=O returned Mtb growth inactive.
Screening CCCCC(=O)Nc1c(C)cccc1CC returned Mtb growth 1%.
Screening CC(C)c1ccc(C(=O)Nc2cccnc2)cc1 returned Mtb growth inactive.
`CCCNC(=O)c1ccccc1NC(=O)CSCc1cccc(Cl)c1` gave Mtb growth 9%.
O=C(Nc1ccccc1OC(F)F)c1cc(Br)ccc1Cl was read as Mtb growth 47%.
COc1ccc(OC)c(NC(=O)CN(c2ccc(Cl)cc2C)S(=O)(=O)c2ccccc2)c1 was read as Mtb growth inactive.
CSc1nnc2c(n1)OC=Nc1ccc(Br)cc1-2 was read as Mtb growth inactive.
`Oc1ccc(NCc2cc(Br)ccc2OCc2ccccc2F)cc1` gave Mtb growth 4%.
Screening COc1ccc(-c2nc(SC3CC(=O)N(c4cccc(C)c4C)C3=O)n[nH]2)cc1 (centres undefined) returned Mtb growth inactive.
Screening CC(SCc1ccccc1)C(=O)Nc1ccccc1C(=O)NCc1ccco1 (centres undefined) returned Mtb growth inactive.

Continued, overlapping the part above by 3 compounds.
`Oc1ccc(NCc2cc(Br)ccc2OCc2ccccc2F)cc1` gave Mtb growth 4%.
Screening COc1ccc(-c2nc(SC3CC(=O)N(c4cccc(C)c4C)C3=O)n[nH]2)cc1 (centres undefined) returned Mtb growth inactive.
Screening CC(SCc1ccccc1)C(=O)Nc1ccccc1C(=O)NCc1ccco1 (centres undefined) returned Mtb growth inactive.
For O=C(CSCc1c(Cl)cccc1Cl)NC1CCCCCC1 the results were Mtb growth 7%.
Screening CSc1ccc(S(=O)(=O)N(CC(=O)Nc2ccc3c(c2)OCCO3)c2ccc(C)cc2)cc1 returned Mtb growth inactive.
`COc1ccc(-n2c(SCC(=O)Nc3ccc(C(N)=O)cc3)nnc2-c2ccc(C(C)(C)C)cc2)cc1` gave Mtb growth inactive.
`CC1CCN(CCOCCOc2ccc(Cl)c(Cl)c2)CC1` gave Mtb growth inactive.
`COc1ccc(S(=O)(=O)N2CCC(C(=O)NC3CC3)CC2)cc1` gave Mtb growth inactive.
For COc1cc(CNC(=O)OCC(C)C)cc(OC)c1OC the results were Mtb growth inactive.
Screening Cc1ccc(NC(=O)c2cccc(S(=O)(=O)NCCOc3ccccc3)c2)c(C)c1 returned Mtb growth 2%.
Screening CS(=O)(=O)N1CCCC(C(=O)NCCc2ccccc2)C1 (centres undefined) returned Mtb growth inactive.
Screening COc1ccccc1N(C(F)F)S(=O)(=O)c1ccc(C)cc1 returned Mtb growth inactive.
CN(C)S(=O)(=O)N1CCN(C(=O)N(c2ccccc2)c2ccccc2)CC1 was read as Mtb growth 2%.
Screening COCCCNC(=O)C(=O)c1cn(C)c2ccccc12 returned Mtb growth inactive.
Screening CCNC(=O)CC1C(=O)N(c2ccc(OC)cc2)C(=S)N1CCN1CCC(Cc2ccccc2)CC1 (centres undefined) returned Mtb growth inactive.

Looked up by structure from above:
For O=C(CSCc1c(Cl)cccc1Cl)NC1CCCCCC1 the results were Mtb growth 7%.
`COc1ccc(S(=O)(=O)N2CCC(C(=O)NC3CC3)CC2)cc1` gave Mtb growth inactive.

(more compounds)
For Cc1ccc(Cl)cc1-n1cnc2ccccc2c1=O the results were Mtb growth inactive.
`CC(=O)C1C(=O)CC(C)(O)C(C(C)=O)C1c1ccc(Br)cc1` (centres undefined) gave Mtb growth inactive.
COc1ccc(-n2c(CCc3ccccc3)nnc2SCC(=O)c2ccc(Cl)cc2)cc1 was read as Mtb growth inactive.
For C=CCOc1ccc(C(=O)Nc2nc(-c3ccc(F)cc3)cs2)cc1 the results were Mtb growth inactive.
Cc1occc1C(=O)Nc1c(F)cc(F)cc1Br was read as Mtb growth inactive.
`O=C(C[n+]1cccc(CO)c1)Nc1nc2ccccc2s1` gave Mtb growth inactive.
For CCn1c(=O)c([N+](=O)[O-])c(N2CCOCC2)c2ccccc21 the results were Mtb growth inactive.
For O=C(CCc1ccc(S(=O)(=O)NC2CCCCC2)cc1)N1CCc2ccccc2C1 the results were Mtb growth inactive.
`COc1ccc(-c2nc3ccccc3o2)cc1NC(=O)c1cc(C)cc(C)c1` gave Mtb growth inactive.
For Cc1ccc(SCC(=O)n2nc(C)cc2C)cc1 the results were Mtb growth inactive.
Screening COc1ccc(Cl)cc1C(=O)NC(=S)Nc1ccccc1N1CCCCC1 returned Mtb growth inactive.
For Cc1cc(C)c(OCC(O)CN2CCN(Cc3ccc4c(c3)OCO4)CC2)c(C)c1 (centres undefined) the results were Mtb growth inactive.
O=C1OC(c2nn3c(-c4ccco4)nnc3s2)Cc2ccccc21 (centres undefined) was read as Mtb growth inactive.
Screening O=[N+]([O-])c1ccc(NCCO)c(Cl)c1 returned Mtb growth inactive.
For COc1ccccc1NC(=O)c1cccc(Br)c1 the results were Mtb growth inactive.
For CCOC(=O)c1ccc(COc2ccc(C(C)C)cc2)o1 the results were Mtb growth inactive.
COC(=O)C1=C(C)N(c2ccccc2)C(=S)NC1c1ccc(OC)cc1 (centres undefined) was read as Mtb growth 0%.
For CCN(CC)C(=O)c1sc(NC(=S)NC(C)C2CCCO2)c(C(=O)OC)c1C (centres undefined) the results were Mtb growth inactive.
CC(C)CN1C(=O)c2ccc(NC(=O)c3ccco3)cc2C1=O was read as Mtb growth 1%.
For COC(=O)C(C)Oc1ccc2c(=O)c(-c3ccc4c(c3)OCCO4)coc2c1 (centres undefined) the results were Mtb growth inconclusive.
Screening CCOC(=O)c1cnc2ccc(C(=O)OC)cc2c1NCCc1ccccc1 returned Mtb growth 9%.
For Cc1ccccc1NC(=O)C(=O)NC1CC1 the results were Mtb growth inactive.
`O=C(O)c1cccnc1OCc1ccccc1` gave Mtb growth inactive.
Cc1ccc(NC(=O)CSc2nc(-c3ccccc3)c(-c3ccccc3)[nH]2)c(C)c1 was read as Mtb growth 5%.
For CN(CC(N)=O)S(=O)(=O)c1ccc(F)cc1 the results were Mtb growth inactive.
For O=C(C1CCC(C(=O)N2CCc3ccccc32)CC1)N1CCc2ccccc21 (centres undefined) the results were Mtb growth inactive.
Screening Cc1cc(C)cc(NC(=O)CSc2nnc(-c3ccncc3)n2C)c1 returned Mtb growth inactive.
`CCOC(=O)Nc1ccc2c(c1)Nc1ccccc1[S@@]2=O` gave Mtb growth 2%.
COc1ccc(CN2CCOC(=O)C2=O)cc1OC was read as Mtb growth inactive.
CCOc1ccccc1NC(=O)CN(Cc1ccc(F)cc1)S(=O)(=O)c1ccc(Cl)cc1 was read as Mtb growth 6%.
CCOC(=O)c1sc(N2C(=O)C(O)=C(C(=O)c3cccs3)C2c2cccs2)nc1C (centres undefined) was read as Mtb growth inactive.
Screening Cc1ccccc1CNc1ccc(N2CCOCC2)cc1 returned Mtb growth inactive.
`O=C1C2C3C=CC(C3)C2C(=O)N1CCN1CCCC1` (centres undefined) gave Mtb growth inactive.
Screening COc1ccc(N(CC(=O)Nc2cccc(SC)c2)S(=O)(=O)c2ccccc2)cc1OC returned Mtb growth inactive.
COC(=O)c1sc(NC(=O)Cc2cccs2)nc1C was read as Mtb growth 1%.
`COc1ccc(-c2noc(CC(=O)NCc3ccccc3)c2-c2ccc(OC)cc2)cc1` gave Mtb growth 7%.
COc1ccc(Nc2nc(N)nc(CN3C(=O)c4ccccc4C3=O)n2)cc1 was read as Mtb growth inactive.
Screening O=c1c2c([nH]c3ccccc13)CCCCC2 returned Mtb growth inactive.
Screening O=S(=O)(c1ccc(Br)cc1)N1CCN(c2cc(Cl)ccc2Cl)CC1 returned Mtb growth inactive.
`CN1C(=O)c2ccc(NC(=O)Cn3c(=O)oc4ccccc43)cc2C1=O` gave Mtb growth inactive.
Screening COCc1cc(=O)[nH]c(SCC(=O)Nc2ccc(-c3nc4ccc(C)cc4s3)cc2)n1 returned Mtb growth inactive.
Screening COc1ccc(CCN(C(=S)Nc2ccccc2)C2CC(=O)N(c3ccccc3)C2=O)cc1 (centres undefined) returned Mtb growth 4%.
Screening COc1ccc(NS(=O)(=O)c2ccc(NC(=O)CSCc3ccc(C)cc3)cc2)cc1 returned Mtb growth inactive.
`CC(C)C(=O)Nc1nnc(SCc2ccc(Br)cc2)s1` gave Mtb growth inactive.
Screening CCn1c(CNC(=O)Cc2ccc(OC)cc2)nnc1SCC(=O)Nc1nc2ccccc2s1 returned Mtb growth inactive.
Cc1cc(C(=O)NCc2cccnc2)no1 was read as Mtb growth inactive.
For COc1ccc(NC(=O)CSc2nc(-c3ccccc3)cc(=O)[nH]2)cc1OC the results were Mtb growth inactive.
O=C(Nc1ccc2ccccc2n1)c1ccccc1C(F)(F)F was read as Mtb growth 4%.
`Cc1ccc(NC(=S)N2CCN(C(=O)c3ccco3)CC2)c(C)c1` gave Mtb growth inactive.
Screening CCOc1ccc(CN2CCN(Cc3ccccc3Br)CC2)cc1 returned Mtb growth 4%.
Screening CC(=O)N1CCN(c2ccc(NC(=S)NC(=O)COc3ccc(C(C)(C)C)cc3)cc2)CC1 returned Mtb growth inactive.
Screening Cc1cccc(C(=O)Nc2cc(C)ccc2O)c1 returned Mtb growth inactive.
For C=CCn1c(C(C)(C)C)nc2ccccc21 the results were Mtb growth 1%.
For CCc1ccc(OCc2nc(-c3cccc([N+](=O)[O-])c3)no2)c(Br)c1 the results were Mtb growth 3%.
For COc1ccc(NC(=O)c2oc3cc(C)c(C)cc3c2C)c(OC)c1 the results were Mtb growth inactive.
COc1cccc(-c2nnc3c4c5c(sc4ncn23)CCCC5)c1 was read as Mtb growth inactive.
`CCC(Oc1ccccc1)C(=O)Nc1cccc(Cl)c1Cl` (centres undefined) gave Mtb growth inactive.
`Cc1nc(SCC(=O)Nc2ccc(Cl)cc2)c2ccsc2n1` gave Mtb growth inactive.
Screening O=C(Nc1ccc(N2CCN(Cc3ccccc3Cl)CC2)cc1)c1ccc(Br)o1 returned Mtb growth inactive.
`COc1ccc(NC(=O)c2ccco2)cc1NC(=S)NC(=O)COc1ccccc1` gave Mtb growth inactive.
`CCOc1cc(C2C(C#N)=C(N)Oc3cc(O)ccc32)c(Br)cc1OC` (centres undefined) gave Mtb growth inactive.
COc1cccc(-c2nn(-c3ccccc3)cc2C(=O)Nc2ccc(C(C)=O)cc2)c1 was read as Mtb growth inactive.
Screening COC(=O)c1cc(NC(=O)c2ccc(C)cc2C)cc(C(=O)OC)c1 returned Mtb growth 6%.
`Cc1ccccc1NC(=O)c1ccccc1` gave Mtb growth inactive.
For CCCc1cc(=O)n(-c2ccc(C(=O)O)cc2)[nH]1 the results were Mtb growth inactive.
COc1ccc(OC)c(NC(=O)C(C)c2ccc([N+](=O)[O-])cc2)c1 (centres undefined) was read as Mtb growth inactive.
For O=C(OCc1ccc2nonc2c1)c1cc(-c2ccccc2)nc2ccccc12 the results were Mtb growth 0%.
`O=S(=O)(NC1CCCC1)c1ccc(Br)cc1` gave Mtb growth inactive.

Only part of the results is shown; rates above refer to the full screens.
